# PINK1 expr mod: modulators of PINK1 expression | Potency, µM (series often up to 76.6 µM), inactives show at the top dose activation (PINK1 increase), actives largely listed as activators | actives 0.2% (n = 410,000) | PINK1 immunofluorescence, high-content cytometry, 24 h; active = well fitted activation curve with a large enough effect; inconclusive = small, poorly fitted or top-dose-only effect; inactive = flat fitted curve, though single readings scatter; cell line not stated here;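 further: potency means the concentration at half of the fitted maximal effect; % of control where 0% means no effect; nearly all actives have a fitted effect of over 65% in size; a mitochondrial uncoupler was the plate control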
#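 Stable cell line, 250 cells/well, 12 h attachment; compounds pinned at 5 concentrations, 24 h; CCCP control. Fixed with nuclear dye, primary antibodies 12 h at 10 degrees C, secondary plus cell stain; laser-scanning cytometer read.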
# CtBP-E1A blk: blocks the CtBP interaction with E1A; AlphaScreen GST-E1A/His-CtBP binding, 1536-well; active compounds read low; control for the full effect not named in the record; activity change, % (test concentration not listed); actives 0.49% (n = 340,000); AID 651724; in the data active means activity change below about -65%; inconclusive means about -30% to -65%; inactive means above about -30%; further: on the % scale 0 is the no-effect control and ±100 the full control effect
#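 AlphaScreen with 125 nM GST-E1A and 125 nM His-CtBP (5X stocks) in Tris pH 8.0, 300 mM NaCl, BSA, Tween 20, TCEP. Compounds preincubated 2 h at 37 deg C, then glutathione donor/nickel acceptor beads added for 1 h at 37 deg C in dark.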
# Six1-Eya2 inh: inhibitors of human Six1/Eya2 interaction; Q15475+O00167; AlphaScreen GST-Six1/His-Eya2 binding, biochemical; active compounds read low; control for the full effect not named in the record; activity change, % (no concentration beside the values); actives 0.56% (n = 360,000); AID 651725; in the data active = activity change below about -65%; inconclusive = about -30% to -65%; inactive = above about -30%; further: on the % scale 0 is the no-effect control and ±100 the full control effect
#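 GST-Six1 + His-Eya2 (5X stock: 250/500 nM); Tris pH 8.0, 300 mM NaCl, 0.05% BSA, 0.02% Tween 20; GSH donor/Ni acceptor beads; 1 h 37 °C dark; AlphaScreen readout.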
# TRPML1 blocker: human mucolipin-1 channel inhibition; TRPML1-inducible cells, Ca2+ dye fluorescence, FDSS; active compounds read low; inhibition of EC80 agonist-evoked calcium signal; activity change, negative = inhibition, % (test concentration not listed); actives 0.02% (n = 390,000); AID 624415; in the data active means activity change below about -50%; inconclusive means about -30% to -50%; inactive means above about -30%;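 further: stimulus is agonist 54-4 at its EC80 concentration; on the % scale 0 is the no-effect control and ±100 the full control effect; compound concentration not given in the record; the text of the record puts the active cut at -80%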
# Target sequence (Q9GZU1 whole entry, looked up): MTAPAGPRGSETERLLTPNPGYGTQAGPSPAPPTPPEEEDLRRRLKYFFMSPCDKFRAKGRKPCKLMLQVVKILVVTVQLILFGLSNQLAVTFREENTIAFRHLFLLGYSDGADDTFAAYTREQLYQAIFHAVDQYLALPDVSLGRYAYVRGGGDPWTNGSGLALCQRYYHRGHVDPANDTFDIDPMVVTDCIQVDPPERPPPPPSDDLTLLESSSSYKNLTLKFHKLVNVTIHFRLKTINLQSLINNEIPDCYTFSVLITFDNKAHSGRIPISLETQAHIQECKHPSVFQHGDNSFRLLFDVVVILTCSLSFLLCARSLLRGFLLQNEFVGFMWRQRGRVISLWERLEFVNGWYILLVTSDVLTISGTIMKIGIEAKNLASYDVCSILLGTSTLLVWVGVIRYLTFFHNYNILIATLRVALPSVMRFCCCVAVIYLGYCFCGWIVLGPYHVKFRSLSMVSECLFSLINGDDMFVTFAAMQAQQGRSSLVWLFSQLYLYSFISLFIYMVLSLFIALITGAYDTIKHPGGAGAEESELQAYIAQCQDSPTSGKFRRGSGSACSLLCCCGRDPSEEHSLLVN
#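 Calcium fluorescence in TRPML1-DL cells induced overnight with Tet: a 110 s read after compound pin addition, then a 110 s antagonist read after challenge with 54-4 at 4 uM final (EC80).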
# TRPML1 ag: activates the human TRPML1 channel; TRPML1-expressing cells, Ca2+ dye fluorescence, FDSS; host cell line not named in the record; reference of the full effect not given here; activation, % (no concentration beside the values); actives 0.12% (n = 410,000); AID 624414; in the data active = activation above about 50%; inconclusive = about 30% to 50%; inactive = below about 30%; further: 0% is about no effect; the text of the record puts the active cut at 80%
#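 In this qHTS format, compounds were pin-transferred onto Ca8-dye-loaded TRPML1-DL cells induced with Tet overnight, and intracellular Ca2+ fluorescence was recorded kinetically for 110 s after a 10 s baseline. A subsequent 4uM final 54-4 (EC80) addition followed by a second 110 s read served as the antagonist phase.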
# D2 ag: activates the human D2 dopamine receptor; P14416; DiscoveRx PathHunter D2 beta-arrestin, luminescence, 90 min; 100% = 57 uM dopamine signal; activation, % (concentration not given with the values); actives 0.084% (n = 360,000); AID 624465; in the data active = activation above about 40%; inconclusive = about 15% to 40%; inactive = below about 15%; further: compound concentration not given in the record; the text of the record calls up to 30% inactive
# Target sequence (P14416 whole entry, looked up): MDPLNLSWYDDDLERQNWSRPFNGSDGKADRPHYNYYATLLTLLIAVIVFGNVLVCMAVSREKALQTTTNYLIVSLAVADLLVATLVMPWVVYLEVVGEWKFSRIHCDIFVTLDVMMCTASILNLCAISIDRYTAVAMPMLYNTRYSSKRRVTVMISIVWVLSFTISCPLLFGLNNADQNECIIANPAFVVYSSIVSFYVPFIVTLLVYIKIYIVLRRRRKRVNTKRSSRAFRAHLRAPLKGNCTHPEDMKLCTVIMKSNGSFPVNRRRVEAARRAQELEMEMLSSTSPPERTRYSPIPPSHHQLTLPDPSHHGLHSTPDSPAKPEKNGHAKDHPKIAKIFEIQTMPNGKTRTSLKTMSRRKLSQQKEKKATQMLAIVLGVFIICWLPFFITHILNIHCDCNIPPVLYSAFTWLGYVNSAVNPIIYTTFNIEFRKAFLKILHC
#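 Agonist mode: compounds alone added to overnight-plated D2 PathHunter cells for 90 min at 37 C, with 57 uM final dopamine (EC100) defining full response. Beta-arrestin recruitment detected by chemiluminescent reagent, read after 1 h at ambient temperature.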
# * = called active by the depositor; ? = inconclusive; . = not tested or not shown; & = joins results of further samples; [ ] = remark or other dose.
SMILES,PINK1 expr mod,CtBP-E1A blk,Six1-Eya2 inh,TRPML1 blocker,TRPML1 ag,D2 ag
Cc1cc(=O)oc2c3c(cc(OCC(=O)NCCN4CCOCC4)c12)OC(C)(C)CC3,-0.4%,0,-6,.,.,-6.1
CCNC(=O)Cc1ccc(S(=O)(=O)N2CCOCC2)s1,1.9%,5,3,1,-0.4,8.8
Cc1cccc(N2CC(c3nc4ccccc4n3CCC3CCCCC3)CC2=O)c1 (centres undefined),0.9%,.,.,30,0.2,.
Cc1cccc(CCNC(=O)c2ccc3c(c2)N(Cc2ccccc2F)C(=O)c2ccccc2S3)c1,1.2%,.,.,34,1.8,.
CCN(CC)c1ccc(NC(=O)c2cc(CN3CCCC3)on2)c(C)c1,-0.5%,.,.,-24,0.9,.
CCC(C(=O)NC1CCCCC1)N(Cc1cccs1)C(=O)c1snc(C(N)=O)c1N (centres undefined),0.6%,7,-4,11,1.6,-3.4
Cc1ccc(CNC(=O)C2CCN(Cc3nc(-c4ccccc4C)oc3C)CC2)cc1,2.8%,.,.,1,0.5,.
COc1cc(CNc2ncnc3c2ncn3[C@H]2CN(Cc3ccc(F)cc3)C[C@@H](CO)O2)cc(OC)c1OC,3.8%,-3,-5,.,-0.2,4.8
Cc1ccc(C)c(S(=O)(=O)N2CCCOC2CNC(=O)C(=O)NCc2ccc3c(c2)OCO3)c1 (centres undefined),1.6%,6,-2,-19,0.3,-1.1
COc1ccc(OCC(=O)Nc2cccc(-c3nc4ccccc4s3)c2C)cc1,2.4%,.,.,7,2.6,.
CC(=O)NCCC1CCN(c2nc3nonc3nc2N(C)Cc2ccccc2)CC1,1.4%,.,4,24,0.8,-6.4
CC1CCCC(C)N1C(=O)CN1C(=O)NC2(CCOc3ccccc32)C1=O (centres undefined),-4.1%,15,-5,-3,1.0,-3.6
O=Cc1cn(CC(=O)N2CCOCC2)c2ccccc12,-4.2%[38.3 µM],8,5,5,0.8,0.9
O=C(CSc1nc2ccccc2c(=O)n1-c1ccc(F)cc1)NC1CCS(=O)(=O)C1 (centres undefined),1.1%,-13,2,-8,-0.5,-4.5
O=C(O)c1ccc(CCCc2ccccc2)cc1,-1.1%,3,9,-5,-0.7,-5.6
CN(Cc1cc(-c2ccccc2)on1)C(=O)c1cc(COc2c(F)cccc2F)on1,-0.4%,21,11,.,.,0.3
COC(=O)c1ccc(NC(=O)c2nn(C)c3c2COc2ccccc2-3)cc1,-1.1%,.,.,-4,1.0,.
O=C(O)c1ccccc1C(=O)Nc1cc(-c2ccccc2)[nH]n1,0.9%,0,6,2,1.6,-3.9
CC(=O)c1cnc(Nc2ccccc2)s1,-0.5%,-1,0,5,0.1,-3.5
COc1ccccc1/C=C1\Oc2cc(OC(=O)N3CCOCC3)ccc2C1=O,-1.2%,.,-3,-12,0.0,-4.0
Cc1cc(NC(=O)COc2ccc(Cl)cc2Cl)n(CCC#N)n1,.,6,-2,3,-0.5,-2.2
OC(Cc1cccc(Br)c1)c1ncc(-c2ccccc2C(F)(F)F)[nH]1 (centres undefined),4.9%,-5,-10,.,-1.1,2.5
CCN1C(=O)C(=O)N(CC(=O)NC(C)CCc2ccccc2)C1=O (centres undefined),1.1%,5,3,-4,-0.5,3.4
COc1ccc(CCN2CN(S(=O)(=O)c3ccccc3)c3nc4ccccc4nc32)cc1,-1.0%,13,-2,12,0.2,-5.9
N#Cc1nc(Cc2cccc3ccccc23)oc1NCCCn1ccnc1,0.7%,-6,-12,2,-0.4,-2.4
CCOC(=O)N1CCC(NC(=O)C2=CCN(S(=O)(=O)c3ccc(OC)cc3)CC2)CC1,0.3%,-7,3,-8,0.8,7.6
CCCN(Cc1cccs1)C(=O)Nc1cc(C)cc(C)c1,0.1%,.,.,13,1.9,.
O=C(c1ccccc1)c1ccc(Cn2cc(-c3ccccc3)nn2)cc1,0.2%,11,2,9,0.9&0.6,1.1
CCOC(=O)[C@]12CCCC=C1N(Cc1ccco1)C(=O)[C@H](CC(=O)NCc1ccc(OC)c(OC)c1)C2,-0.6%,5,0,.,-1.0,.
COc1ccc(S(=O)(=O)N(C)CC(=O)Nc2c(F)cccc2F)cc1,2.9%[38.3 µM],10,2,-8,2.6,5.2

# Gathered by group: those above with an aryl methoxy group.
SMILES,PINK1 expr mod,CtBP-E1A blk,Six1-Eya2 inh,TRPML1 blocker,TRPML1 ag,D2 ag
COc1cc(CNc2ncnc3c2ncn3[C@H]2CN(Cc3ccc(F)cc3)C[C@@H](CO)O2)cc(OC)c1OC,3.8%,-3,-5,.,-0.2,4.8
COc1ccc(OCC(=O)Nc2cccc(-c3nc4ccccc4s3)c2C)cc1,2.4%,.,.,7,2.6,.
COc1ccccc1/C=C1\Oc2cc(OC(=O)N3CCOCC3)ccc2C1=O,-1.2%,.,-3,-12,0.0,-4.0
COc1ccc(CCN2CN(S(=O)(=O)c3ccccc3)c3nc4ccccc4nc32)cc1,-1.0%,13,-2,12,0.2,-5.9
CCOC(=O)N1CCC(NC(=O)C2=CCN(S(=O)(=O)c3ccc(OC)cc3)CC2)CC1,0.3%,-7,3,-8,0.8,7.6
CCOC(=O)[C@]12CCCC=C1N(Cc1ccco1)C(=O)[C@H](CC(=O)NCc1ccc(OC)c(OC)c1)C2,-0.6%,5,0,.,-1.0,.
COc1ccc(S(=O)(=O)N(C)CC(=O)Nc2c(F)cccc2F)cc1,2.9%[38.3 µM],10,2,-8,2.6,5.2

# The results go on.
SMILES,PINK1 expr mod,CtBP-E1A blk,Six1-Eya2 inh,TRPML1 blocker,TRPML1 ag,D2 ag
Cc1cc(=O)n(CCC(=O)O)c2ccccc12,1.0%,9,8,4,-0.6,-2.8
COc1ccc(CNC(=O)c2ccc(N3CCC4(CC3)CC(c3ccc(Cl)cc3)=NO4)c(NC(=O)c3ccccc3)c2)cc1,-0.1%,.,-3,13,0.5,0.3
Cc1noc(C)c1S(=O)(=O)N1CCC(C(=O)N2CCN(c3ccc(Cl)cc3)CC2)CC1,-0.7%,-3,-14,7,-0.1,0.2
O=C(CCSc1ccc(Cl)cc1)N1CCN(S(=O)(=O)c2ccccc2)CC1,-0.7%,15,-4,11,0.6,0.2
CC1(C)NC(=O)N(CCOc2ccc3c(c2)CCC3)C1=O,13%[38.3 µM],3,3,-15,-0.3,-0.2
Cc1ccc(C)c2sc(NC(=O)c3ccc(S(=O)(=O)N4CCC(C)CC4)cc3)nc12,-2.2%,.,.,6,1.0,.
N#Cc1ccccc1NC(=O)CN1CCN(Cc2ccccc2)CC1,1.4%,8,1,-14,-1.0,-2.5
Cc1ccsc1C1NC(=O)c2c(sc3c2CCCC3)N1 (centres undefined),4.6%,-9,-12,-12,0.2,-2.6
Cc1nc(Nc2ccc(S(N)(=O)=O)cc2)sc1-c1ccccc1,-0.8%,-3,-13,-15,1.2,-3.2
O=c1oc2ccc(NS(=O)(=O)c3cccc4cccnc34)cc2s1,-1.4%,-10,-12,-19,1.7,-5.6
COc1ccc([N+](=O)[O-])cc1NC(=O)C(C)OC(=O)C1CC(=O)N(Cc2ccco2)C1 (centres undefined),1.1%,6,-3,-7,-0.3,-3.0
COc1ccc(C(=O)NC(=O)COC(=O)C2CC2C)cc1 (centres undefined),-0.1%,12,-4,0,0.4,-0.6
COc1ccccc1Nc1nc(-c2sc(NC(=O)CC(C)C)nc2C)cs1,2.7%,-21,1,6,0.2,-4.6
CCCCN1C(=O)C(CC(=O)NCCc2ccccn2)CC(C(=O)N2CCOCC2)=C1C (centres undefined),-1.1%,5,2,8,-0.4,-4.6
CC1=C(C(=O)N2CCN(C(=O)c3ccco3)CC2)C2(CCC(C)CC2)OC1=O (centres undefined),0.4%,2,1,4,0.2,0.3
Cn1c(C(=O)O)c(C=O)c2ccccc21,2.6%,4,2,-7,-0.1,-3.6
O=C1CCC(=O)N1OCCCCOc1ccccc1,3.1%,10,5,-14,-0.4,0.4
CCOC(=O)c1c(C)[nH]c(C(=O)N/N=C\c2ccccc2O)c1C,7.9%,-8,-65*,12,0.6,-3.7
Cc1noc(C)c1NC(=O)N(C)C[C@H]1Oc2ccc(NC(=O)CCC(F)(F)F)cc2C(=O)N([C@H](C)CO)C[C@@H]1C,1.5%,-29,-25,-17,0.5,-3.2
CCOc1ccc(Cl)cc1S(=O)(=O)NC1CCCC1,-0.7%,-15,-2,21,-0.4,-4.2
CCc1nonc1NC(=O)c1oc2cc(Br)ccc2c1C,9.3%,-7,14,33,2.3,9.6
CN(C)CCNC(=O)COc1ccc(C23CC4CC(CC(C4)C2)C3)cc1,-1.2%,-22,-6,21,2.2,-0.9
c1ccc(N2CCN(CCc3nnc4n3CCCCC4)CC2)cc1,.,10,0,-7,0.4,5.1
COc1cc(Nc2ccc(S(N)(=O)=O)cc2)c([N+](=O)[O-])nc1[N+](=O)[O-],-0.4%,.,9,.,.,?
O=C(COC(=O)c1cccc(S(=O)(=O)N2CCCC2)c1)Nc1ccc(Cl)cc1,1.5%,-1,-8,-11,1.0,-1.8
Cc1ccc(C)c(OCc2cc(C(=O)N3CC[C@H](O)C3)no2)c1,-0.9%,3,0,2,-0.8,0.6
COc1ccc(NC(=O)Cn2c(NCC(C)O)nc3ccccc32)cc1Cl (centres undefined),0.0%,.,-3,3,0.8,-5.0
CC(=O)c1ccccc1NC(=O)CCCNC(=O)c1ccc(Cl)cc1,-1.3%,-11,9,-13,-0.1,-6.4
O=C(N/N=C/c1cccc([N+](=O)[O-])c1)c1ccc2c(c1)OCCO2,-2.5%,-1,-5,-3,0.4,-2.9
COCCCNC(=O)CSC1=Nc2ccccc2C2=NC(CCC(=O)NCc3ccccc3OC)C(=O)N12 (centres undefined),0.3%,.,.,46,3.3,.
CCOc1ccccc1N1CC(C(=O)N(C)Cc2cccnc2)CC1=O (centres undefined),1.8%,-19,-3,0,0.0,-1.4
Cc1cccc(CS(=O)(=O)c2ncc(Cl)c(C(=O)Nc3nc4ccc(F)cc4s3)n2)c1,-1.0%,.,.,?,-0.5,.
O=C(O)Cc1cn(Cc2ccc(F)cc2)c2ccccc12,1.4%,-17,-10,14,-1.0,8.9
CCOC(=O)c1sc(=S)n(-c2ccccc2Cl)c1SC,.,-12,-16,3,0.0,-4.8
Cc1c(CCO)c(=O)n(-c2ccccc2)n1S(=O)(=O)c1c(Cl)cc(Cl)cc1Cl,1.5%,-2,?,-4,-0.5,-2.1
C=CCn1c(Cc2nc3ccccc3[nH]2)n[nH]c1=S,6.0%[38.3 µM],5,-26,17,1.7,-2.7
N/C(Cc1ccccc1)=N\OC(=O)c1cccc2ccccc12,-2.3%,32,32,19,3.2,9.0
O=C(CN1C(=O)NC2(CCc3ccccc32)C1=O)c1ccccc1 (centres undefined),-0.1%,-10,-6,-22,0.4,-1.6
CC(C)(C)c1ccc(C(=O)O)c(C(=O)c2ccc(C(=O)O)cc2)c1,-0.3%,-3,2,3,0.8,1.2
Cc1ccc(C)c(CN2C(=O)c3ccccc3S(=O)c3ccc(C(=O)N4CCC(C)CC4)cc32)c1 (centres undefined),0.5%,.,.,14,-0.8,.
COC(=O)c1ccccc1NC(=O)CSc1nc(C)cc(C)n1,2.1%,-23,17,16,0.8,-0.3

# Source: PubChem BioAssay
